# Mtb MbtI inh: MbtI salicylate synthase inhibitors, primary screen, biochemical, fluorescence intensity. P9WFX0. purified MbtI enzyme, fluorescence intensity read-out. inhibition, %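 (about 17 µg/mL by stock and volumes)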. 0.89% of 100,000 active. AID 493033, 2011;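 active means above 50% in both replicates, above 80% if mildly self-fluorescent; inactive means the rest, strongly fluorescent compounds included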;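 further: 0% = mean of negative and 100% = mean of positive controls; one replicate is shown; some compounds called inactive have numbers as strong as hits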
# Target sequence (P9WFX0 whole entry, looked up): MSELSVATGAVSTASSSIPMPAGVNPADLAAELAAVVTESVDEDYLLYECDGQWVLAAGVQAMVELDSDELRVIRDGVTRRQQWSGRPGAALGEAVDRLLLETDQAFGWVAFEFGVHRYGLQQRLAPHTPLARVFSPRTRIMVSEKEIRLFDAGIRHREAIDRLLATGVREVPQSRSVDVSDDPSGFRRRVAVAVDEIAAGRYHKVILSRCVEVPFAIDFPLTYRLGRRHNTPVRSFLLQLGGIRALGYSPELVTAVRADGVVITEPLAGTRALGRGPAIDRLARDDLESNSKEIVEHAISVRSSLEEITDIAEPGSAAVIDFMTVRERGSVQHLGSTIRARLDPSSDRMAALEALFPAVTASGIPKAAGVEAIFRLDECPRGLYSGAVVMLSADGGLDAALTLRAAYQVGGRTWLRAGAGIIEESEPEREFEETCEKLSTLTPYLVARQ
# Mtb MenB inh: M. tuberculosis MenB inhibitors, primary screen, biochemical, absorbance | 1,4-dihydroxy-2-naphthoyl-CoA synthase (Mycobacterium tuberculosis (strain ATCC 25618 / … | MenB enzyme assay, absorbance read-out; some hits fall short of the stated cut | inhibition, %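 (about 12 µg/mL by stock and volumes)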 | 0.43% of 100,000 active | AID 540299, 2011;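 active means mean of two replicates above 30%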;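 further: 0% = no compound and 100% = wells with inactive enzyme; the first replicate is given; strong numbers were not always called active; inactives centre near -10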
# Polio RdRp inh: poliovirus RdRp elongation inhibitors, primary screen, biochemical, fluorescence polarization, total intensity; Genome polyprotein (Poliovirus type 1 (strain Mahoney)), P03300; poliovirus polymerase elongation; hits give low values; % elongation, % (compound at 16.7 µg/mL); 0.66% of 150,000 active; in the data active means % elongation below about 90%; further: some results filed as inactive read as strong as hits
# Target sequence (P03300 1749-2209 limits assumed): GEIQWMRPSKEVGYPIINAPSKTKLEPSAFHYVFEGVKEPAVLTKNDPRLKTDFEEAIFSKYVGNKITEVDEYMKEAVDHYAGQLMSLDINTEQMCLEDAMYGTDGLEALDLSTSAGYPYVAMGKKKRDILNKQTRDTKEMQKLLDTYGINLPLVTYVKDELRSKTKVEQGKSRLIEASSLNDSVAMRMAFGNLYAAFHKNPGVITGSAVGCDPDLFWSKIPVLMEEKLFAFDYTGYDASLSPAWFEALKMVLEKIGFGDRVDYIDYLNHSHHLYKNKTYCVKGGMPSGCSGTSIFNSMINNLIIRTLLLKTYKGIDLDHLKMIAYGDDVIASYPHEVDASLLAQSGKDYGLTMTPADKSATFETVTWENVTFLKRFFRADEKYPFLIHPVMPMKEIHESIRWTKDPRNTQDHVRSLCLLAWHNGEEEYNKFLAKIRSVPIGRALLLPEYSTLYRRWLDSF
# Polio RdRp inh intensity: recorded beside Polio RdRp inh, whose call it bears; % elongation; measured here: total intensity read-out; formula for this scale not given here;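 total fluorescence in place of polarization; lower means less elongation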
# Starred values were filed as active, the others as inactive; . = no result given.
mol	Mtb MbtI inh	Mtb MenB inh	Polio RdRp inh	Polio RdRp inh intensity
Cc1ccc(-n2ncc3c(NCCc4ccc(S(N)(=O)=O)cc4)ncnc32)c(C)c1	14	-9	103	103
C=CCNc1oc(-c2cccs2)nc1C#N	86	-2	100	105
Cc1csc(SCC(=O)Nc2ccc(S(N)(=O)=O)cc2)n1	0	-8	104	110
COc1ccc(-c2noc(C3CCN(C(=O)OC(C)(C)C)CC3)c2C(=O)O)cc1	6	12	99	104
O=C(Cn1c(-c2ccccn2)nc2ccccc21)NCCCn1ccnc1	106	-5	100	103
CCCCSc1nnc2c(=O)[nH]c(=O)[nH]c2n1	-4	1	102	101
Cc1sc(-n2c(C)cc(C=C3C(=O)NC(=S)NC3=O)c2C)c(C#N)c1C	47	-1	98	103
CN(C)C(=S)SCC(=O)Nc1ccc(F)cc1	38	-35	103	104
O=C(NCC1CCCCC1)c1ccc(-n2cnnn2)cc1	-10	-11	102	107
O=C1NC(=O)N(CCc2ccc(F)cc2)C(=O)/C1=C/c1cccc2ccccc12	.	-29	90	94
FC(F)(F)c1nnc2n1N=C(c1ccc(Cl)cc1Cl)CS2	.	-15	104	104
Cc1ccc(-n2ncc3c(Nc4ccccc4)ncnc32)cc1	33	-15	101	101
Cc1cccc(NC(=O)[C@@H]2CCCN2C(=O)OC(C)(C)C)c1	-8	-1	.	.
Nc1ccc(O)c(-c2nc3ccccc3o2)c1	3	-18	103	101
Cc1cc2c(=O)[nH]c(Cc3ccccc3)nc2s1	.	-19	105	107
COc1ccc(CCNc2ccc(C)cc2)cc1	.	-13	105	111
Cc1ccc(-c2csc(Nc3ccc(C(=O)O)cc3)n2)c(C)c1	.	-20	90*	79*
CCCCn1c(C2CC(=O)N(c3ccccc3Cl)C2)nc2ccccc21 (configuration not stated)	0	-27	103	99
O=C(CCNC(=O)c1ccco1)NC1CCCc2ccccc21 (configuration not stated)	-22	-18	101	107
CCCNC(=O)C(C)n1c2ccccc2c2cnn(C)c(=O)c21 (configuration not stated)	54	-18	101	105
Cc1ccnc(NS(=O)(=O)c2ccc(NC(=O)c3ccc(S(=O)(=O)N4CCCCC4C)cc3)cc2)n1 (configuration not stated)	16	-17	100	107
CC1CN(Cn2nc(-c3ccc(Br)o3)n(Cc3ccccc3)c2=S)CC(C)O1 (configuration not stated)	-5	-55	100	99
CN(Cc1nc(-c2ccc(C(F)(F)F)cc2)no1)C1CS(=O)(=O)CC1O (configuration not stated)	-2	-42	101	95
Cc1cccc(NC(=O)Nc2c(O)c3ccccc3oc2=O)c1C	4	12	99	103
Cc1ccc(S(=O)(=O)N2CCc3ccccc3C2)cc1	.	-34	106	97
O=C(CCn1c(=O)oc2ccccc21)OCc1cc(=O)n2cc(Br)ccc2n1	-6	-2	106	122
CCOC(=O)C1CCCN(C(=O)c2ccc(/C=C3\Oc4ccccc4NC3=O)cc2)C1 (configuration not stated)	-187	-12	100	100
CCCN(CCC)C(=O)c1cc(OC)cc(OC)c1	.	1	103	103
COC(=O)CSc1nnc(-c2ccccc2)n1CC1CCCO1 (configuration not stated)	-13	-21	103	100
Cc1cccc(NC(=O)Cn2c(=O)n(Cc3ccco3)c(=O)c3cccnc32)c1	-1	0	100	107
Nc1nc(C(=O)Nc2ccccc2)c(-c2ccccc2)s1	7	.	106	106
COC(=O)C1C(c2ccccc2)NC(c2ccccc2)C(C(=O)OC)S1(=O)=O (configuration not stated)	-8	-16	102	103
CN1CCCC(OC(=O)C(C)(c2ccccc2)c2ccccc2)C1 (configuration not stated)	.	-5	101	105
O=C(CSc1ncnc2c1nnn2Cc1ccc(F)cc1)N1CCc2ccccc21	4	-19	100	103
CCOC(=O)NCCN1C(=O)C2C3C=CC(C3)C2C1=O (configuration not stated)	-5	1	102	102
O=C(CSc1nc2ccccc2s1)N=C1NC(=O)CS1	-11	-30	100	104
O=C(NCc1ccco1)c1ccc2c(=O)n(CCCN3CCCC3=O)c(=S)[nH]c2c1	13	-32	101	101
CN(C(=O)COC(=O)c1ccc(CO)cc1)c1ccccc1	-4	9	99	102
O=C(Cn1cnc2onc(-c3ccc(Cl)cc3)c2c1=O)NCCC1=CCCCC1	-11	-13	101	103
NS(=O)(=O)c1ccc(CCNC(=O)c2c(Cl)nc3sccn23)cc1	-4	12	104	108
CCN(CC)C(=O)/C(C#N)=C/c1ccc(-c2ccc(Cl)cc2)o1	5	-53	102	97
CCOC(=O)Cc1csc(SCC(=O)Nc2cc(C(C)(C)C)nn2-c2ccccc2)n1	-11	-4	109	111
CC(C)N=C(Nc1ccnn1C(C)C)c1ccccc1	-10	-26	103	98
CC(CBr)(NS(=O)(=O)c1ccccc1)c1ccccc1 (configuration not stated)	3	.	104	101
CC1CCN(c2nccn(-c3cccc(Cl)c3)c2=O)CC1	39	1	102	103

# Structures above that contain a Cl atom:
mol	Mtb MbtI inh	Mtb MenB inh	Polio RdRp inh	Polio RdRp inh intensity
FC(F)(F)c1nnc2n1N=C(c1ccc(Cl)cc1Cl)CS2	.	-15	104	104
CCCCn1c(C2CC(=O)N(c3ccccc3Cl)C2)nc2ccccc21 (configuration not stated)	0	-27	103	99
O=C(Cn1cnc2onc(-c3ccc(Cl)cc3)c2c1=O)NCCC1=CCCCC1	-11	-13	101	103
NS(=O)(=O)c1ccc(CCNC(=O)c2c(Cl)nc3sccn23)cc1	-4	12	104	108
CCN(CC)C(=O)/C(C#N)=C/c1ccc(-c2ccc(Cl)cc2)o1	5	-53	102	97
CC1CCN(c2nccn(-c3cccc(Cl)c3)c2=O)CC1	39	1	102	103

# Later entries:
mol	Mtb MbtI inh	Mtb MenB inh	Polio RdRp inh	Polio RdRp inh intensity
COCCN1C(=O)C2C3c4ccccc4C(c4ccccc43)C2C1=O (configuration not stated)	0	40	100	103
O=C(CCc1nc(-c2cccs2)no1)Nc1cccc(C(=O)NC2CC2)c1	3	2	96	101
O=C(O)/C=C/c1ccsc1	3	-5	95	105
CC1CCc2c(sc3ncn(CC(=O)N4CCCC4)c(=O)c23)C1 (configuration not stated)	-15	-61	104	104
CSc1ccccc1C(=O)NCc1ccc(S(N)(=O)=O)cc1	14	-8	100	94
O=C1CN(c2cc(Cl)cc(Cl)c2)C(=O)CN1/N=C/c1cccnc1	-5	-21	101	95
CC(=O)OC[C@H]1O[C@@H](NC(N)=O)[C@H](OC(C)=O)[C@@H](OC(C)=O)[C@@H]1OC(C)=O	1	12	103	105
N=c1n(CCOc2ccccc2)c2ccccc2n1Cc1ccccc1	7	-4	102	104
COc1cccc2sc(=NC(=O)Cc3cccc4ccccc34)n(C)c12	17	2	102	97
O=C(CSc1ncn[nH]1)C1CC1	.	-7	102	112
CCC1(C)N=C(c2ccc3c(c2)OCO3)CC(c2ccccc2O)N1 (configuration not stated)	5	-6	100	103
Cc1ccc(C(=O)N(c2ccc(SC(F)F)cc2)c2nc3ccccc3s2)o1	18	13	105	95
O=C(O)CCC(=O)N(c1ccccc1)c1ccccc1	-8	8	100	101
O=C1Nc2cc(C(=O)N3CCN(c4ccc(F)cc4)CC3)ccc2NC1CS(=O)(=O)Cc1ccc(F)cc1 (configuration not stated)	-7	-6	109	117
CCOC(=O)C1CCCCN1Cc1ccc(CC)cc1 (configuration not stated)	-1	-34	103	98
O=C(c1ccc(CNS(=O)(=O)c2ccccc2)cc1)N1CCN(c2ccccn2)CC1	-9	-21	103	102
CC1CCN(S(=O)(=O)c2ccc(N=C3C(=O)Nc4ccccc43)cc2)CC1	.	-16	101	104
CC(C)(C)[C@H]1COC(CC2=N[C@@H](C(C)(C)C)CO2)=N1	-9	9	101	102
COc1cc(C2/C(=C(\O)c3ccc(F)cc3)C(=O)C(=O)N2Cc2cccnc2)ccc1O (configuration not stated)	-19	-23	103	101
COC(=O)N/N=C/c1c(C)nn(-c2cccc(Cl)c2)c1Cl	16	4	100	103
CCOC(=O)N1CCN(C(=O)CN2C(=O)/C(=C\c3ccc(C)cc3)Sc3ccccc32)CC1	1	-30	102	93
O=C(COc1ccccc1)OCN1C(=O)c2ccccc2C1=O	-3	-12	100	102
NC(CSC1CCCCO1)C(=O)O (configuration not stated)	-8	-17	103	103
O=C(CNC(=S)N(Cc1ccccc1)Cc1cccs1)NC1CCCCC1	14	-22	99	95
OC(c1ccccc1)c1nnc(SCc2ccc(Br)cc2)n1-c1ccccc1 (configuration not stated)	.	-16	107	101
O=C(CCCSc1nc2ccccc2s1)NCc1ccco1	-12	-7	108	114
Cc1ccc(C(=O)C(C)OC(=O)C2=COCCO2)cc1C (configuration not stated)	1	1	90*	89*
CS(=O)(=O)c1ccccc1C(=O)Nc1nnc(-c2ccc(Cl)cc2)o1	-5	-19	104	105
CC(Sc1nnc(-c2ccccc2Br)o1)C(=O)NC1CC1 (configuration not stated)	12	11	99	96
Cc1ccc2oc(=O)c(C(=O)CC3CCCC3)c(O)c2c1	-5	2	103	104
COc1cc(/C=N/N)cc(OC)c1OC	-5	4	103	105
Cc1ccnc(SCc2cc(=O)c(OC(=O)c3ccc4c(c3)OCO4)co2)n1	0	-9	102	104
Oc1ccc(CN2CCc3ccccc3C2)c2cccnc12	-11	-19	113	116
CCc1nc2nc(C)cc(=O)n2[nH]1	0	-13	105	103
Cn1nc(C(=O)NC2CCCCC2)c2ccccc2c1=O	-5	5	104	106
CCN(Cc1ccccc1)CN1C(=O)C2(OCCCO2)c2ccccc21	-1	-26	104	100
Cn1cc(C(=O)c2ccccc2)c2ccccc21	4	14	102	104
c1cc2c(cc1CN1CCNCC1)OCCO2	-3	-22	103	100
Nc1nn2cc(-c3ccccc3)nc2c2ccccc12	81	.	102	105
c1ccc(CN2CCC(NC3CCCC3)CC2)cc1	-6	1	103	100
O=C(NC(=S)Nc1ccc(Br)cc1)C1CC1	0	-27	102	102
O=C(CSc1nc2ccccc2[nH]1)N1CCCC1	-5	-46	103	102
Cc1cccc(N2CCN(CCNC(=O)c3csc4c3CCCC4)CC2)c1C	-18	-26	101	106
CC1CCCCN1CCCNC(=O)c1c(O)nc2ccccn2c1=O (configuration not stated)	59	-26	103	99
O=C(NC1CCCC1)c1ccccc1	8	-5	100	102
CCOc1ccc(N2C(=O)CC(/C=C3/N(C)c4ccccc4C3(C)C)C2=O)cc1 (configuration not stated)	7	8	102	105
O=C(O)c1ccccc1-c1ccccc1C(=O)NCCCO	-2	8	99	101
Cn1c(-c2ccco2)n[nH]c1=S	122	-12	100	106
Cc1ccc2nc(COC(=O)CN3C(=O)C4CC=CCC4C3=O)cc(=O)n2c1 (configuration not stated)	43	-18	102	109
NCC1OC(OC2C(N)CC(N)C(OC3OC(CO)C(O)C(N)C3O)C2O)C(O)C(O)C1O (configuration not stated)	-8	2	101	100
CC(C)(C)c1cc(C(=O)Nc2nccs2)ccn1	13	-11	99	101
Cc1occc1-c1nnc(SCC(=O)N(CC(C)C)c2c(N)n(CC(C)C)c(=O)[nH]c2=O)n1C	-2	-12	106	104
CC(C)=CCCC(C)CN1CCN(Cc2ccccc2)CC1 (configuration not stated)	-5	-20	102	105
Cc1ccc(Cn2c(C(=O)NCc3ccccc3)cc3oc(C)cc32)cc1	0	16	99	102
CCOC(=O)C(C)n1cnc2c(nnn2Cc2ccc(C)cc2)c1=O (configuration not stated)	12	-10	101	103
CC(C)CCN(C(C)c1cccs1)S(=O)(=O)c1csc(C(N)=O)c1 (configuration not stated)	-20	-31	100	103
COc1ccccc1NC(=S)N(Cc1ccccc1)Cc1ccc(C)o1	-11	-22	101	103
O=c1[nH]c(CN2CCCC2c2ccc3c(c2)OCCO3)nc2cc(Cl)ccc12 (configuration not stated)	-2	-6	.	.
CCOc1cc(-n2cnnn2)c(OCC)cc1NC(=O)CN1Cc2ccccc2C1=O	-43	-6	101	104
CC(C)n1cc(-c2nc(C(=O)NN)cs2)c(=O)n(Cc2ccccc2)c1=O	-8	-8	105	111

# (further entries)
mol	Mtb MbtI inh	Mtb MenB inh	Polio RdRp inh	Polio RdRp inh intensity
O=C(OCC(=O)N1CCCC1=O)c1ccc(S(=O)(=O)NCc2ccco2)cc1	-3	-14	105	99
NC(=O)C1CCN(c2nc(-c3cccc(Cl)c3)c3c(n2)-c2ccccc2OC3)CC1	70	-12	103	103
COC(=O)c1ccc(OC(=O)c2cc(OC)c(OC)c(OC)c2)c(C(=O)OC)c1	-14	-9	102	104
CCn1c(SCC(=O)N2CCNC2=O)nnc1-c1cccs1	10	-23	101	110
Cc1ccc(-c2nn(-c3ccccc3)cc2/C=C2/CN(C)C/C(=C/c3cn(-c4ccccc4)nc3-c3ccc(C)o3)C2=O)o1	23	-34	115	117
CCCOc1ccc(/C=C/C(=O)O)cc1OCC	-8	.	101	102

# From PubChem BioAssay
